hNpr1 antagonist: Natriuretic polypeptide receptor (hNpr1) antagonism - Primary qHTS; Atrial natriuretic peptide receptor 1 (Homo sapiens), P16066; HEK293 hNpr1 GloSensor cGMP, ANP-stimulated luminescence; Potency, µM (highest dose often 46.3 µM), for the others: at the highest dose activity change, negative = inhibition, hits mostly inhibitors; hit rate 1.6% among 76,000; AID 1347048, 2019; active = well fitted inhibition curve with a large enough effect; inconclusive = small, poorly fitted or top-dose-only effect; inactive = no such curve, though single readings can be large or run the other way;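 further: nearly all actives have a fitted effect of over 60% in size; nearly all hits also lower the signal before the agonist is added; a reference antagonist and vehicle were the controls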
Target sequence (P16066 whole entry, looked up): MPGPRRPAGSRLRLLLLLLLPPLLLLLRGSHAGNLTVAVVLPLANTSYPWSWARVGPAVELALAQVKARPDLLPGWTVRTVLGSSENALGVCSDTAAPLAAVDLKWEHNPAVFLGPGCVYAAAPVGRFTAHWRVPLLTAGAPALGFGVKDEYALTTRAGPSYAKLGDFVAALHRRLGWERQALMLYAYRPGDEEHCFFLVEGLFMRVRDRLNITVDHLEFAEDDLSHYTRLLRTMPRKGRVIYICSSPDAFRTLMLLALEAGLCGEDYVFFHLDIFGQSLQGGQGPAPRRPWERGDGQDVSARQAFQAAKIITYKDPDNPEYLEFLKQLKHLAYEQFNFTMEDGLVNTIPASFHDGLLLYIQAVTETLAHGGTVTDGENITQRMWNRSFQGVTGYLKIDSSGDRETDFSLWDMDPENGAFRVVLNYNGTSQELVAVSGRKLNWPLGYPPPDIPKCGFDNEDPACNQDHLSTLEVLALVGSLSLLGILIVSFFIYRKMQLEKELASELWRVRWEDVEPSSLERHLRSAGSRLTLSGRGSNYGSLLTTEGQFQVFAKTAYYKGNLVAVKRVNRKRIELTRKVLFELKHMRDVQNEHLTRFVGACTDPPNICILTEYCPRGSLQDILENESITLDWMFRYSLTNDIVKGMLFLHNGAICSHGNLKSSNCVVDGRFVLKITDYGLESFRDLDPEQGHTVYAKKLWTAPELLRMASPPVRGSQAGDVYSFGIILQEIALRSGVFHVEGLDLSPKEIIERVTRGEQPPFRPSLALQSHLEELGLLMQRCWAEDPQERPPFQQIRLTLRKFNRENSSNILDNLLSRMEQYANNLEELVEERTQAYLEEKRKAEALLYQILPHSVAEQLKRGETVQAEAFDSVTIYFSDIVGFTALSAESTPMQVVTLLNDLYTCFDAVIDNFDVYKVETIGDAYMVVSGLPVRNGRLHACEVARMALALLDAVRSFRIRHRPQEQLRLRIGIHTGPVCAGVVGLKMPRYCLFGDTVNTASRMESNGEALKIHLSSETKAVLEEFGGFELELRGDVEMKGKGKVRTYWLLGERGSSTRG
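Compound pre-incubated 30 min at room temperature on GloSensor-loaded HEK293 cells stably carrying hNpr1 and the pGS-40F cGMP biosensor. Stimulation uses hNppA at 0.1 nM final; luminescence is taken at baseline and 20 min post-agonist.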
Numbers without * were called inactive; ? = inconclusive; [ ] = dose if it differs, or a comment. On the % scale 0 is the no-effect control and ±100 the full control effect; potency means the concentration at half of the fitted maximal effect. Some of the compounds tested; count on the stated rates, not on these rows.

Molecule,hNpr1 antagonist
CCc1ncc(C(=O)N2CCCC(Cc3nc4ccccc4[nH]3)C2)cn1 (stereo not drawn),2%
CN1C(=O)[C@@H]2C[C@@H](O)CN2C2(CN(Cc3cccc(F)c3)C2)C1=O,4%[70.6 µM]
COc1cccc(CNC(=O)c2c(C)noc2-c2cccs2)c1,-3%
COCC[C@]1(O)CCN(C(=O)c2cccc(OC)c2C)C[C@H]1C,-5%
COCC1CN(C(C)=O)CC12CCN(C(=O)NCCc1ccccc1)CC2 (stereo not drawn),1%
Cc1ccc(CNC(=O)N2CCCC2c2nc(CCOc3ccc(F)cc3)no2)cc1 (stereo not drawn),-22%
COc1ccccc1C(=O)N1CCC(n2cnnc2-c2ccccc2)C1 (stereo not drawn),4%
O=C1Nc2ccc(-c3ccc(Cl)cc3)cc2C(=O)N2CCN(C(=O)C3CCCCC3)C[C@H]12,-21%
CS(=O)(=O)N1CCCC(C(=O)NC2CCN(Cc3ccccc3)CC2)CCNC(=O)CC1 (stereo not drawn),3%
COc1cccc(C(=O)N2CCC(n3cc(-c4nc(-c5ccccc5)no4)nn3)CC2)c1OC,-30%
Cc1n[nH]c(C)c1C(N)C(=O)N(C)Cc1ccnc2ccccc12 (stereo not drawn),-2%
NC(=O)C1CCN([C@H]2[C@@H]3OC[C@@H](O3)[C@@H](NC(=O)Nc3cccc(C(F)(F)F)c3)[C@@H]2O)CC1,3%
COC(=O)N1CCC2(CC1)C(=NC1CCCCC1)NC(=O)N2c1cccnc1,24%
CCOc1ccccc1NC(=O)Cn1ccn2nc3c(c2c1=O)CCCC3,-28%
CNC(=O)c1cc(S(=O)(=O)N[C@H]2[C@H]3CCO[C@H]3[C@@H]2N(C)C)cs1,2%
CN1c2cc(C(=O)NC3CCCCC3)ccc2C(=O)N2CCCC21 (stereo not drawn),13%
COCc1nc2nccc(-c3ccsc3)n2n1,4%
COc1ccc(-c2nnc3n2CCN(C(=O)c2ccccc2)C3)cc1,-6%
O=C1[C@@H]2C[C@@H](O)CN2C2(CN(Cc3cccnc3)C2)C(=O)N1Cc1cccc(Cl)c1,6%[70.6 µM]
CC(C)N1CC(c2nc(-c3ccc4nc[nH]c4c3)no2)CC1=O (stereo not drawn),0%
Cc1ccc2nc(CO[C@H]3CN(C4CCCCC4)C[C@H]3F)[nH]c2c1,-11%[70.6 µM]
CCn1cc(S(=O)(=O)N2C[C@@H](C(N)=O)[C@H](c3nc(COC)no3)C2)cn1,-1%
COc1ccc(-c2noc(-c3cccn3CC(=O)N3CCN(c4ccccc4OC)CC3)n2)cc1F,-15%
CC(Cc1ccncc1)Nc1nccc(-c2cnn(-c3ccccc3F)c2)n1 (stereo not drawn),-15%
O=C(c1cnn2cc(CCO)cnc12)N1CCCC(CCc2ccc(F)cc2)C1 (stereo not drawn),-8%
O=C(NCc1ccncc1)C1CC(=O)N(c2n[nH]c3cccc(F)c23)C1 (stereo not drawn),0%
Cc1nc(N2CCCCC2)ncc1C(=O)N1C[C@@H](CN(C)C)C[C@H](CO)C1,2%
Cc1cccc(Cl)c1NC(=O)Cn1c(C)cc2nc3n(c(=O)c21)CCCCC3,4%
CCc1cc(=O)n(CC(=O)N2CCN(c3ccc(OC)cc3)CC2)c(N2CCOCC2)n1,-14%
CCNC(=O)N1CCc2c(sc3ncnc(N(C)C)c23)C1,-23%
Cc1nc(-c2ccc(F)cc2)n(CC(=O)Nc2cccc(Cl)c2)c(=O)c1CCO,-18%
O=C(CN1C(=O)NC2(CCOCC2)C1=O)NCCC1=CCCCC1,24%
CCCc1noc(-c2cn(C3CCN(C(=O)c4ccc(N(C)C)cc4)CC3)nn2)n1,-17%
CN1CC(n2ccnc2-c2cnc(-c3cccc4ccccc34)nc2)CCC1=O (stereo not drawn),5%
COC(=O)c1cc2n(n1)CCN(C(=O)CNS(=O)(=O)c1cccs1)C2,4%
COCCN1C(=O)c2ccccc2C(C(=O)Nc2nc(C)cs2)C12CCCC2 (stereo not drawn),1%
NCc1ccccc1-c1nc2c([nH]1)CCNC2C(=O)O (stereo not drawn),-2%
COc1ccc(/C=C/CN2CCC(CCC(=O)Nc3ccccc3Cl)CC2)cc1,1%
CCO[C@H]1CN(C(=O)C2(c3ccc(OC)c(OC)c3)CCCC2)C[C@@H]1O,0%
O=C1CC(C(=O)O)C2(CCN(c3cc(C4CC4)ncn3)CC2)N1 (stereo not drawn),1%
CCn1nc(CNC(=O)C(c2cccnc2)N2CCOCC2)c2ccccc21 (stereo not drawn),-6%
Cc1ocnc1C(=O)N1CCN(C(=O)C2CCC2)[C@@H]2CS(=O)(=O)C[C@@H]21,1%
O=C(c1ccc(N2CC3CC(C2)[C@H]2CCCC(=O)N2C3)nc1)N1CCN(c2ncccn2)CC1 (stereo partly drawn),1%
Cc1ccc(F)cc1S(=O)(=O)N1CC(C(=O)NC2CCCCC2)C2(CCOCC2)C1 (stereo not drawn),-2%
CN(C)C(=O)c1cccnc1OC1CCN(Cc2cccnc2)CC1,-1%
CSCc1ccc(C(=O)NCCc2nc(-c3ccccn3)no2)o1,0%
CC(C)c1noc(-c2cccn3c(CNC(=O)CCc4ccccc4)nnc23)n1,-5%
COc1ccc(NC(=O)Cn2c(C)ccc(NS(=O)(=O)c3ccccc3)c2=O)c(C)c1,-1%
COc1ccccc1N1CCN(C(=O)Cn2c(-c3ccc(F)cc3)nc(C)cc2=O)CC1,-2%
COc1ccc(CN(C)C2CCc3ccccc32)cc1 (stereo not drawn),5%[70.6 µM]

Additional structures follow.
Molecule,hNpr1 antagonist
CCCc1noc(CN(C)C(=O)[C@@]23CNC[C@@H]2CN(Cc2ccccc2)C3)n1,-2%
CC(C)Cc1cc(C(=O)N[C@H](C2CCNCC2)C2CC(O)C2)nc(N)n1 (stereo partly drawn),4%
CCC(NC(=O)c1cc(C(C)C)nn1C)c1ccc(S(C)(=O)=O)cc1 (stereo not drawn),?
COCCNc1ncc(-c2ccc(F)cc2)c2c1OCC2,1%[70.6 µM]
O=C(Nc1cccc(C(F)(F)F)c1)O[C@@H]1CO[C@H]2[C@@H]1OC[C@@H]2Nc1nccc(-c2ccc(-c3ccccc3)cc2)n1,0%
CC(=O)N(C1CC1)C1CCOC2(CCN(C(=O)c3nn(C)c4ccccc34)CC2)C1 (stereo not drawn),-1%
CC(C)c1noc(-c2ccn3c(CNC(=O)c4ccc(F)cc4Cl)nnc3c2)n1,-19%
Cc1ccccc1CN1CCc2nc(N3CCN(C)CC3)[nH]c(=O)c2CC1,2%
O=C(NCCC1CCN(C(=O)Nc2cccc(F)c2)CC1)C1CCCC1,-4%
CC(C)N1CCC(CCN2C(=O)[C@H]3CNC[C@H]3C2=O)CC1,0%

(list continues)
SMILES | hNpr1 antagonist
Cc1ccc(C(=O)N2CCN(C3CCN(CCc4ccccc4)C3=O)CC2)cc1F (stereo not drawn) | 0%
Cc1ccc2c(c1)N(CCCC(=O)N1CCc3nc4cc(-c5ccccc5)[nH]n4c(=O)c3C1)C(=O)CO2 | -11%
Cc1cc(=O)n(CC(=O)Nc2cccc(C(C)C)c2)c(N2CCOCC2)n1 | -1%
CCOc1ccc(CN2CCC(N3CCCC(C(=O)NC4CC4)C3)CC2)cc1 (stereo not drawn) | -5%
COc1ccc(-c2nnc([C@H]3CCN(C(=O)C4CCCCC4)C3)o2)cc1 | -2%[70.6 µM]
CCNC(=O)N(C1CC1)C1CCOC2(CCN(C(=O)CCCc3ccccc3)CC2)C1 (stereo not drawn) | -23%
COc1ccc(CCN2Cc3cc(NC(=O)c4ccccc4OC)ccc3OCC2=O)cc1 | -19%
COc1cccc(C2CNC(=O)c3nc(Cn4nc(C)c(C)c4C)[nH]c3C2)c1 (stereo not drawn) | -2%
COCCN1CCCCCC(O)c2cc(C(=O)N3CCN(C4CCCCC4)CC3)ccc21 (stereo not drawn) | 4%
COc1nccnc1NC1CCN(C(=O)NC2CCCCC2)CC1 | 3%
COCCN1CCC(CN(C)C2CCNCC2)C1 (stereo not drawn) | 0%
CC(C)NC(=O)N1CCC2(CC1)C(=O)N(C)c1ccccc12 | -10%
COc1ccc(NC(=O)CN2C(=O)NC3(CCCCC3)C2=O)c(OC)c1 | 2%
COc1ccc(C(=O)N2CC[C@@H](CC(=O)O)[C@@H](CCN3CCN(c4cccc(C(F)(F)F)c4)CC3)C2)cc1 | 4%
CC1=C[C@@H](CNC(=O)c2cccnc2)[C@H](C(C)C)C[C@H]1Cc1nc2ccc(F)cc2[nH]1 | -4%[70.6 µM]
O=C(c1ccc(F)cc1)N1CCC[C@H]1c1nc(-c2ccc(F)cc2)no1 | 9%
CCCc1noc(-c2cn(C3CCN(C(=O)c4ccco4)CC3)nn2)n1 | -5%
CCC1C(=O)N(C)CCN1C(=O)c1coc(COc2ccc3c(c2)OCO3)n1 (stereo not drawn) | 3%
O=C1CCN(C(=O)c2cccs2)CCCC(c2nc(-c3cccnc3)no2)CCN1 (stereo not drawn) | 4%
COCC1(C(=O)N2CCC3(CC2)C(=O)N(C)c2ccccc23)CCC1 | 4%
CC(=O)N1CCC(OCCOc2ccccc2)CC1 | 2%
Cc1c(Cl)cc(C(=O)N2CCC[C@H]2C(=O)N2CCOCC2)cc1Cl | -1%
Cc1ccc(C(=O)N2CCC(Cc3nc(-c4ccccc4)no3)CC2)s1 | 6.3µM*
COC(=O)C1=CN(CC(=O)Nc2ccccc2OC)S(=O)(=O)N=C1C | 3%
COCc1noc(CCNC(=O)c2ccc(C)c(N3CCNC3=O)c2)n1 | 4%
CN(C)c1ccc(CN[C@H]2C[C@H]3C(=O)NC[C@@H](CCC(=O)NCc4ccccc4)N3C2)cc1 | -3%
O=C(Nc1cccc(C(F)(F)F)c1)N[C@H]1CO[C@H]2[C@@H]1OC[C@H]2O | -9%[70.6 µM]
CN(Cc1nc(-c2ccccc2)no1)CC1(O)CNCCOC1 (stereo not drawn) | 4%
Cc1ccc(-c2cc3c(=O)n(CCNC(=O)c4cccc(Cl)c4)ccn3n2)c(C)c1 | ?
O=C1NCCCCCCN(C(=O)c2ccoc2)[C@H]2C[C@H](C(=O)N3CCc4ccccc4C3)C[C@@H]12 | -1%
CCOC(=O)C1=CN(Cc2ccccc2)S(=O)(=O)N=C1C | -13%
COc1ccc(N2CC(C(=O)NC3CC3)NC2=O)cc1 (stereo not drawn) | 0%[70.6 µM]
Cc1ccc(NC(=O)NC2CCN(C(=O)N3CC4CC(C3)[C@H]3CCCC(=O)N3C4)CC2)cc1C (stereo partly drawn) | 4%
CCOc1cc(=O)n2c(c1C(=O)Nc1ccc(C(F)(F)F)cc1)CCCC2 | 3%
COc1ccc(OC)c(NC(=O)c2cc3n(n2)CC(c2ccc4c(c2)OCO4)OC3)c1 (stereo not drawn) | 1%
COCCN1C(=O)c2ccccc2C(C(=O)Nc2cccc(OC)c2)C12CCCC2 (stereo not drawn) | 0%
Nc1ncccc1CN1C[C@H]2CN(C(=O)C3CCC3)C[C@@]2(C(=O)O)C1 | 9%
NC(=O)N1CCCC(C(=O)NCCc2nc(-c3ccccn3)no2)C1 (stereo not drawn) | 3%
CC(=O)N1CCC(N2CCC([C@@H]3CNC[C@H]3CO)CC2)CC1 | 7%
COc1ccc(C(=O)N2CCC3(CC2)N=C(c2cccc(Br)c2)NO3)cc1 | -22%
CN(C)c1ccc(CN[C@H]2[C@H](O)[C@@H](N3CCC(Cc4ccccc4)CC3)[C@@H]3OC[C@H]2O3)cc1 | -2%
O=C(NC1CCN(c2cc(-c3ccccc3)[nH]n2)C1)c1ccc(F)c(F)c1 (stereo not drawn) | -4%
CCNC(=O)N1CCC(NC(=O)c2cccc(CCC(C)(C)O)c2)CC1 | 2%
CCN(CC)C(=O)c1cc2c(s1)CCC(C(=O)NCc1c(C)nn(C)c1C)C2 (stereo not drawn) | ?
